A1 inh: inhibitors of the anti-apoptotic protein A1, read as caspase activation | MEF A1-2A-BIM cells, Caspase-Glo 3/7 luminescence, 3 h; percent of clofoctol response, vehicle zero | 330,000 compounds, 0.066% hits | caspase activation, % (concentration not given with the values) | AID 2462;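 active = over half of replicate activation scores above 10%, or exactly half above 10 with the replicate mean above 10; inconclusive = replicate mean below 10 yet half the replicates above 10; inactive = over half of replicates below 10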;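 note: wells of about 30 µL received 50 nL stock; many hits fall short of the cut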
B2AR ag: agonists of human beta-2 adrenergic receptor inducing internalization; Am2.2-beta2AR cells, FAP receptor internalization, flow cytometry; reference of the scale not given here; 340,000 compounds, 0.43% hits; response, % (concentration not given with the values); P07550; AID 504454;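 active = response above a set limit, near 3 SD of response in nonfluorescent compounds, cut at about 42% in these data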;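 note: stock transfer was 100 nL into about 11 µL; a reference agonist was the positive control; negative values mostly stem from fluorescent compounds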
Ecoli growth: blocks Escherichia coli growth. OD600 absorbance (test concentration not listed). OD600, 23 h; active compounds read low. AID 1053175. 330,000 compounds, 0.21% hits;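 active = OD600 absorbance below the run mean of sample wells minus 3.6 SD, in any replicate, cut at about 0.56 in these data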;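 note: stock transfer was 300 nL into about 60 µL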
UCH37 inh: blocks the human deubiquitinase UCH37; inhibition, % (test concentration not listed); Q9Y5K5; 330,000 compounds, 0.33% hits; purified proteasome/UCH37, Ub-AMC cleavage fluorescence;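 active = mean of two replicates above 20%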;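 note: 0% = compound-free wells with enzyme and 100% = wells lacking proteasome; stock transfer was 100 nL into about 20 µL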
Target sequence (Q9Y5K5 whole entry, looked up): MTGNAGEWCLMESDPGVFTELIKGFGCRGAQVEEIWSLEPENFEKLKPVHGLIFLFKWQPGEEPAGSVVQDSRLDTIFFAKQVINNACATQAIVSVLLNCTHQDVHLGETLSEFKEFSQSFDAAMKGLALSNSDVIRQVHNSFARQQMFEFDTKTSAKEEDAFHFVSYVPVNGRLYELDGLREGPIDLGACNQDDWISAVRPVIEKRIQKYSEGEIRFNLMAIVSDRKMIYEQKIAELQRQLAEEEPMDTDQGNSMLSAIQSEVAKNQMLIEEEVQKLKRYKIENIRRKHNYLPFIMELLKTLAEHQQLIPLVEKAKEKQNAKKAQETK
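Test system – human UCH37 enzyme supplied as purified proteasome complex · Incubation – 30 min preincubation with enzyme, 25 min cleavage at room temperature · Detection – AMC fluorescence from Ub-AMC cleavage, excitation 355 nm, emission 460 nm · Benchmarks – no-proteasome wells (full inhibition) and compound-free wells (no inhibition)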
HNF4A DNA FP: change in binding of human HNF4 alpha to DNA; P41235; HNF4a-FITC DNA binding, fluorescence polarization, 1 h; activity change, % at 10 µM; 360,000 compounds, 0.3% hits; in the data active = activity change above about 30%, passing the limit was not always enough;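 note: controls were the assay level and a saturating level of protein; the project sought stronger binding though the title names inhibitors; some compounds called inactive have numbers as strong as hits; positive values seem to mean higher polarization but the record does not say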
Target sequence (P41235 whole entry, looked up): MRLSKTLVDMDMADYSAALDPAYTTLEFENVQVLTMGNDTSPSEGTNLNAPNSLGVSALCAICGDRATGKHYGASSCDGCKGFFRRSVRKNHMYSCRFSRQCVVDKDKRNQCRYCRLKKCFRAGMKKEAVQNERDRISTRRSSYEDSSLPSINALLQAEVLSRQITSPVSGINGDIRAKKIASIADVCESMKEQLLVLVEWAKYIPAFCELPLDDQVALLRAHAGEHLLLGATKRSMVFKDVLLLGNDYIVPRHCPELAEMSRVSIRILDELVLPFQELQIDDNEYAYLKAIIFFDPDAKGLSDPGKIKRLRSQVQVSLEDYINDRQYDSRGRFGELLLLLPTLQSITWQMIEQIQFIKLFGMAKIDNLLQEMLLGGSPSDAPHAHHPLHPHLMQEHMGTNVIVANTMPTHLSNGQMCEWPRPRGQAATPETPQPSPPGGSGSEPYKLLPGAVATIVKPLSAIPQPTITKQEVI
Vif TR-FRET: HIV-1 Vif–A3G interaction blockers – biochemical, TR-FRET, GST-Vif 1-94, biotin-A3G peptide, dose response retest, primary screen (AID 1117319); TR-FRET GST-Vif / biotin-A3G peptide binding; higher % means a stronger effect; test concentration not given here; strong numbers were not always called active; inhibition, %; hits with a dose series show IC50 in µM; 260,000 compounds, 0.57% hits;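 active = above the screen mean plus three standard deviations and confirmed in dose response; inconclusive = results disagree or hit not tested in dose response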;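 note: Vif residues 1-94 fused to GST binding biotinylated APOBEC3G peptide 110-148; 0% = full assay without inhibitor and 100% = GST in place of GST-Vif; retest series ran down from 100 µM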
LANA-H2B inh: blocks KSHV LANA binding to histone H2A/H2B. cell-free LANA-H2A/H2B peptide, fluorescence polarization. Q9QR71. AID 2629. inhibition, % (test concentration not listed). 320,000 compounds, 0.6% hits; in the data active = inhibition mostly above about 10%, no sharp cut-off; inactive = mostly below about 6.7%;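 note: stock transfer was 7.5 nL into about 10 µL; 0% = median of vehicle wells and 100% = median of positive control wells; one replicate is shown; the record names a cut of 25% in any replicate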
* hit, by the source's call; ? = inconclusive; nt = not tested or not shown; & = joins results of further samples. Rows are unselected; overall some 2.1% were active at least once.

SMILES,A1 inh,B2AR ag,Ecoli growth,UCH37 inh,HNF4A DNA FP,Vif TR-FRET,LANA-H2B inh
Cc1cc(C)cc(N(CC(=O)Nc2ccccc2-c2ccccc2)S(=O)(=O)c2ccccc2)c1,-0.1,9.5,0.687,2.0,0.4,nt,-4.6
Cc1ccc(Cn2nnc3c(=O)[nH]c(C4CCN(S(=O)(=O)c5ccc(S(=O)(=O)NC6CC6)cc5)CC4)nc32)cc1,-0.2,1.1,0.689,-1.1,-2.0,nt,1.8
CCOC(=O)CNC(=S)N(CCCN1CCCC1)Cc1cccs1,-0.8,-7.0,0.724,0.5,0.9,12.2%,0.4
CC(C)C(NC(=O)c1ccccc1)C(=O)N1CCN(C/C=C/c2ccccc2)CC1 (stereo unspecified),0.9,4.4,0.707,-0.6,1.6,nt,1.1
COCCN(C(=O)COC(=O)c1cnc(C)cn1)c1c(N)n(Cc2ccccc2)c(=O)[nH]c1=O,-0.1,-7.8,0.587,-0.4,1.5,3.0%,nt
CCOC(=O)CSCc1cn2cc(Cl)ccc2n1,1.1,5.9,0.629,3.2,4.2,6.5%,-0.5
O=[n+]1c2c(n([O-])c3cc(F)c(F)cc31)CCCC2,0.8,1.8,0.685,7.2,-0.3,5.33µM*,2.2
O=C(NC(CO)Cc1ccc([N+](=O)[O-])cc1)C(Cl)Cl (stereo unspecified),0.0,3.0,0.0615*,0.5,-4.5,nt,22.0*
CCc1cccc(NC(=S)Nc2cccc3ccccc23)c1,0.4,-1.3,0.721,2.2,5.1,3.5%,-3.0
Cc1ccc(S(=O)(=O)NC2CCCCC2)cc1,0.6,-2.2,0.642,0.9,3.5,nt,45.2*
CCC(CC)C(=O)NCCc1ccc(OC)cc1,0.3,3.6,0.73,-1.2,1.4,13.6%,0.2
O=C(COc1ccccc1N1C(=O)C2C3C=CC(C3)C2C1=O)c1ccccc1 (stereo unspecified),-0.1,-5.6,0.681,-0.2,0.8,nt,-0.9
Cc1ccc(S(=O)(=O)N(C)C)cc1NC(=O)Cn1c(CN2CCOCC2)nc2ccccc2c1=O,0.7,-4.4,0.699,0.8,-1.4,nt,3.2
COc1cc(NC(=O)c2ccco2)c(C(=O)O)cc1OC,0.2,3.5,0.655,6.1,0.7,4.7%,3.1
Cc1nc(NC(=O)CSC2=NCCS2)sc1C(=O)N(C)C,-0.5,0.9,0.684,4.3,-3.8,nt,9.2
CNC(=O)NC(=O)Cn1cnc2sc(-c3ccccc3)cc2c1=O,1.5,-3.5,0.673,0.0,3.7,-9.4%,-4.0
CC(C)[C@H](NC(=O)C1CCC(CNC(=O)[C@@H]2CCCN2C(=O)OC(C)(C)C)CC1)C(=O)O (stereo partly specified),nt,7.6,0.662,3.0,0.7,nt,nt
Cc1ccc(NC(=O)NCC2CC2(Cl)Cl)cc1 (stereo unspecified),-0.2,-4.7,nt,nt,0.0,-3.4%,-15.9
CC1(C)C(=O)Nc2ccccc2N1C(=O)COc1ccc(S(=O)(=O)N2CCOCC2)cc1Cl,1.0,10.4,0.702,nt,-3.1,12.1%&3.7%,-2.4
CC(=O)c1ccc(OCCCC(=O)NCC(c2ccco2)N(C)C)cc1 (stereo unspecified),0.5,-6.2,0.733,-1.3,-3.2,5.4%,-0.6
COc1ccc(NCc2nnc(SCC(=O)Nc3nc(-c4ccccc4)cs3)n2-c2ccccc2)cc1,0.3,2.0,0.744,2.8,-2.3,?,1.5
COCc1c(C)cc(C)c(/C=N/O)c1C,0.9,-2.2,nt,nt,0.2,22.1%,0.3
O=C(CN1C(=O)NC2(CCc3ccccc32)C1=O)Nc1ccccc1OC(F)F (stereo unspecified),-0.7,-5.5,0.69,3.6,-2.3,nt,2.8
COc1ccc(NC(=O)c2cccc3c2C(=O)c2ccc(-c4ccc(F)cc4OCc4ccccc4)cc2S3(=O)=O)cc1,3.3,2.0,0.704,1.0,3.2,nt,-4.6
COc1ccc(-c2nnn(CC(=O)N(CCCO)C(C(=O)NC3CCCC3)c3ccncc3)n2)cc1 (stereo unspecified),0.9,-7.0,0.719,0.5,-0.3,nt,0.0
O=C(OCC1COc2ccccc2O1)c1c(F)cccc1F (stereo unspecified),0.6,2.4,0.644,3.1,-3.6,8.0%,2.3
CC(C)NC(=O)CN(C(=O)CCC(=O)Nc1ccccn1)c1ccc(F)c(Cl)c1,0.7,8.2,0.719,1.4,-2.5,-0.1%,2.0
O=c1[nH]c(CCl)nc2cc(-c3ccc(Cl)cc3)sc12,-6.1,39.8,0.701,-1.5,0.8,-7.0%,3.0
CCOC(=O)N1CCC(=NNC(=O)Cn2ccc(C(F)(F)F)n2)CC1,-0.3,1.4,0.696,1.5,-1.8,2.9%,-2.1
Cc1cc(C(=O)N2CC=C(c3ccccc3)CC2)c2ccccc2n1,0.0,17.7,0.687,3.7,-0.9,0.3%,0.5
Cc1cccc(OCC2Cn3c(nc4c3c(=O)[nH]c(=O)n4C)O2)c1 (stereo unspecified),-0.6,-5.3,0.62,0.8,-2.8,nt,5.7
COC(=O)C1=CN(Cc2ccc(F)cc2)C=C(C(=O)OC)C1c1ccc(O)c(OC)c1,-0.5,2.0,0.722,-53.5,-1.6,nt,0.9
COc1cccc(C(=O)Nc2cc(OC)ccc2NC(=O)c2ccco2)c1,0.5,2.9,0.699,4.9,-0.1,nt,6.3
CCOC(=O)c1sc(NCC2CCCO2)nc1C (stereo unspecified),0.5,-3.3,0.741,3.2,0.1,-0.7%,-4.6
CCc1ccc(NC(=O)CCc2nc3sc4c(c3c(=O)[nH]2)CCCC4)cc1,0.5,2.0,0.721,1.9,10.9,-2.3%,-3.2
CC(C)Cc1cc(C(=O)N2CCC(N3CCC(C(=O)N4CCCC4)CC3)CC2)n[nH]1,-0.3,2.5,0.707,1.9,6.0,10.0%,-17.4
CC(C)CN(CC(C)C)c1nc(N)c(C#N)c(CC#N)c1C#N,0.0,16.1,0.701,-3.3,3.7,0.8%,-2.5
O=C(CSc1ncnc2c1nnn2Cc1ccc(F)cc1)NCC1CCCO1 (stereo unspecified),-1.4,10.9,0.7,6.5,2.7,-4.8%,5.0
O=C(NC1CCCCC1)C(c1cccs1)N(CCCN1CCOCC1)C(=O)c1ccc(-c2ccccc2)[nH]1 (stereo unspecified),0.8,0.9,0.685,5.1,2.0,-4.3%,-3.2
CCC1C(=O)NCCN1C(=O)c1cc(COc2cc(C)ccc2C)on1 (stereo unspecified),-0.3,-4.4,0.664,-0.1,2.3,-1.7%,2.6
O=C1C2CCCN2C(c2ccc(Cl)cc2)N1c1nccs1 (stereo unspecified),-0.5,4.3,0.708,0.9,4.3,19.0%,-9.0
O=C(Nc1ccccc1C(F)(F)F)c1cnccn1,0.7,10.7,0.588,0.6,2.8,6.2%,-11.4
CCSc1nnc(-c2ccc(S(=O)(=O)NCc3cccs3)cc2)o1,-1.2,3.1,0.691,1.2,2.3,-40.4%,0.7
CCn1c(SCC(=O)NC2CC2)nnc1-c1cccc(OC)c1,0.0,-1.2,0.642,0.2,2.6,nt,-1.0
COc1ccc(C(=O)NCC(=O)NC2=NCCS2)cc1,0.4,3.0,0.763,6.9,0.6,-1.1%,-4.9
CCC(C)NC(=O)Nc1ccccc1C (stereo unspecified),0.0,-0.2,0.723,0.8,-0.8,2.9%,-4.7
COCC(C)n1c(SCC(=O)N2CCCCC2)nc2ccccc2c1=O (stereo unspecified),-0.5,0.3,0.695,0.8,0.2,-0.7%,-2.8
CC(C)Nc1nc(Cl)nc(Nc2ccccc2)n1,-0.5,4.7,0.709,0.9,-1.2,-1.4%,-3.1
Cc1ccc(N2C(=O)NC(NS(=O)(=O)c3ccc(C)cc3)(C(F)(F)F)C2=O)cc1 (stereo unspecified),0.0,7.0,0.699,1.2,2.4,nt,1.8
CCc1ccc2[nH]c(=O)c(CN(Cc3ccccc3OC)C(=O)Nc3ccccc3OC)cc2c1,0.2,-0.5,0.71,-1.2,0.9,-2.0%,2.4
CC(C)CNS(=O)(=O)c1ccc(S(=O)(=O)N2CCC3(CC2)OCCO3)cc1,0.2,-6.1,0.69,3.5,-0.7,5.2%,-1.9
CCCCc1cc(=O)oc2cc(OCC(=O)N3CCOCC3)ccc12,0.3,-8.9,0.643,-30.8,-5.7,nt,5.2
Cn1c(=O)c2[nH]c(=S)n(Cc3ccccc3)c2n(C)c1=O,nt,-7.0,0.689,3.0,-0.8,-10.8%,nt
CCc1cc(C(=O)N2CCN(c3ccccc3OC)CC2)sc1C,-0.3,-1.6,0.662,4.1,0.3,nt,-1.2
Cc1cc(N2CCN(c3ccccn3)CC2)n2nc(C)nc2n1,2.2,0.5,0.757,4.7,1.3,5.1%,-2.0
C=C1CCN([C@@H](Cc2ccccc2)C(=O)NCCCc2ccccc2)S(=O)(=O)c2ccccc21,2.0,2.5,nt,-104.8,1.9,nt,-2.7
COC(=O)c1cc(OC)c(OC)cc1NC(=O)CN1C(=O)c2ccccc2C1=O,-0.3,-4.1,0.674,3.7,-1.2,6.6%,-0.5
COC(CNC(=S)Nc1ccc([N+](=O)[O-])cc1)OC,-0.3,10.9,0.697,4.0,-3.1,nt,-2.6
O=C(CN1CCN(c2ccccc2F)CC1)c1ccc(O)c(O)c1,-0.8,2.2,0.675,7.0,1.4,13.3%,-2.4
CCOc1ncccc1C(=O)OCC(=O)c1c[nH]c2ccccc12,-0.8,10.4,0.644,0.3,-0.3,-13.7%,-0.8

Going on with the list:
SMILES,A1 inh,B2AR ag,Ecoli growth,UCH37 inh,HNF4A DNA FP,Vif TR-FRET,LANA-H2B inh
CC(C)CCN1CCN(Cc2nc3ccccc3s2)CC1CCO (stereo unspecified),1.6,10.1,0.671,-1.7,0.1,32.1%,4.9
O=C(CSc1nc2c(cnn2-c2ccccc2)c(=O)[nH]1)N1CCOCC1,-1.2,-0.6,0.75,0.9,1.5,0.5%,-4.1
COCc1ccc(C(=O)Nc2ccc(C(=O)O)cc2)o1,-0.9,-1.5,0.693,1.2,5.4,?,-7.5
COc1nc(-c2ccc(C)cc2)ccc1-c1noc(-c2ccco2)n1,0.1,-12.9,0.703,-21.3,17.2,-15.8%,-0.3
O=C(Nc1cccc2ncccc12)C(c1ccccc1)c1ccccc1,-0.7,-4.0,0.73,-11.9,1.0,13.9%,-6.4
CC1CCN(C(=O)c2[nH]cnc2C(=O)Nc2ccccc2)CC1,-0.3,-5.3,0.679,4.7,2.1,nt,-1.4
O=C1CN(S(=O)(=O)c2cccc(C(=O)O)c2)c2ccccc2N1,0.1,0.4,0.675,1.7,-1.1,nt,-2.5
CC1(C)c2ssc(=S)c2-c2ccccc2N1C(=O)CSC1=NCCS1,0.6,3.6,0.754,3.8,-5.0,-2.3%,0.6
Cc1ccc(-c2c[n+](Cc3cccc(Cl)c3)c3n2CCC3)cc1,-0.4,6.4,0.653,8.8,0.9,16.6%,-5.3
CC(Cc1ccco1)NC(=O)c1cccc(S(=O)(=O)N(C)C)c1 (stereo unspecified),0.8,2.0,0.647,1.0,1.8,nt,8.6
C[C@H]1C=CC(=O)O[C@H]1c1ccccc1,-1.3,10.2,nt,nt,-4.4,nt,2.3
c1ccc(Nc2ccccc2)cc1,2.5,3.0,0.689,-0.1,1.7,-0.3%,-2.7
Cc1ccc(C(=O)OCC(=O)N2CCOCC2)cc1,0.0,3.0,0.676,3.2,2.9,nt,2.4
